Kir21 inh: Kir2.1 (mouse) channel inhibition. P35561. HEK293-Kir2.1, FluxOR thallium flux fluorescence; active compounds read low. B-score at 10 µM. actives 0.85% (n = 310,000);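 active = fluorescence ratio B-score at or below minus 3 SD of library scores, with starting-brightness B-score within 2 SD, cut at about -4.2 in these data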;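 note: channel flux triggered by added potassium and thallium sulfate stimulus; B-score of peak minus minimum fluorescence over baseline after thallium stimulus; more negative B-score means stronger Kir2.1 block with less thallium influx; some compounds called inactive have numbers as strong as hits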
Target sequence (P35561 whole entry, looked up): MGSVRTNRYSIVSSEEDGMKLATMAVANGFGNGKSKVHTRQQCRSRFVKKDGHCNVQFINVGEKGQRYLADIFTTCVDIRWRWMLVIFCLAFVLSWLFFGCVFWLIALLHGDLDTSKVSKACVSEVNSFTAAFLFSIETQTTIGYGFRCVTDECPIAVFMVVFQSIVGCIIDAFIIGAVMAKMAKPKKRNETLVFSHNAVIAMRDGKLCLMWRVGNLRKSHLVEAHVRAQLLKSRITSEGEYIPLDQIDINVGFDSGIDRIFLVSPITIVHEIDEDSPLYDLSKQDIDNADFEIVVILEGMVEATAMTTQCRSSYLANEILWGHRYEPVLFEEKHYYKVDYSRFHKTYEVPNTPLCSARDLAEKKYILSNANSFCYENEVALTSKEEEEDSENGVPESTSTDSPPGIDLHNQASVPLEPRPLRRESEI
* hit, by the source's call.

SMILES | Kir21 inh
C/C(CC(=O)Nc1ccc(Cl)c(Cl)c1)=N\NC(N)=S | -0.41
CCCOc1ccc(C2/C(=C(/O)c3ccc(F)cc3)C(=O)C(=O)N2CCCN(C)C)cc1 (stereo unspecified) | 1.1
CC(=O)Nc1ccc(NC(=O)CSc2nccn2Cc2ccc(Cl)cc2)cc1 | -0.3
COc1ccc(CC(=O)NC(C)c2ccc3ccccc3c2)cc1 (stereo unspecified) | -0.25
Fc1ccc(/C=N/Nc2nnnn2-c2ccccc2)cc1 | 2.2
COc1ccc(NC(=O)C2CCCN(S(=O)(=O)c3cccc4nonc34)C2)c(OC)c1 (stereo unspecified) | 1.9
CCCCCCSc1nnc2[nH]c(=O)cc(N)n12 | 0.79
O=C1CCN(CCc2ccccc2)CCN1[C@H](CSc1ccc(Br)cc1)c1ccccc1 | 1.9
CC(=O)Nc1ccc(Nc2nnc(-c3ccc(C)c(S(=O)(=O)NCC4CCCO4)c3)c3ccccc23)cc1 (stereo unspecified) | 0.44
Cc1nnc(SCC(=O)NC(=O)Nc2ccc3c(c2)OCCO3)s1 | -1.7
Cc1ccc(N(Cc2ccccc2)C(=O)c2cccc(S(=O)(=O)N3CCN(C)CC3)c2)cc1 | -0.4
COc1ccccc1NC(=O)N1CCCC(C(=O)Nc2cccc(C)c2C)C1 (stereo unspecified) | 1.6
CCNC(=O)COc1cc(C)c(Cl)c(C)c1 | -0.93
COc1cccc(CNC(=O)Cn2c(=O)oc3cc(S(=O)(=O)N4CCCCC4)ccc32)c1 | 2.8
O=C(CCn1c(=S)[nH]c2ccccc2c1=O)NCCCN1CCCC1=O | -0.5
CCOC(=O)C1CCCN(S(=O)(=O)Cc2ccccc2)C1 (stereo unspecified) | -0.08
CCCCN1C(=O)c2ccccc2C1C(=O)NC1CCCC1 (stereo unspecified) | -0.3
CC1(C)CC(=O)C(N=Nc2ccc(Cl)cc2)=C(O)C1 | 0.06
Cn1c(SCC(=O)NC(=O)CN2CCCC2=O)nnc1-c1ccc(F)cc1 | 0.01
COc1ccc(N2CCN(S(=O)(=O)c3c[nH]c(=O)[nH]c3=O)CC2)cc1 | 0.05
Cc1ccc(SCC(=O)OCC(=O)NC(C)c2ccc(Br)cc2)cc1 (stereo unspecified) | -1.1
O=C(O)CNC(=O)c1ccc(NC(=O)/C(=C/c2cccc([N+](=O)[O-])c2)NC(=O)c2ccco2)cc1 | 0.09
CCOc1ccc(/C(O)=C2/C(=O)C(=O)N(c3ccccn3)C2c2ccc(C)cc2)c(C)c1 (stereo unspecified) | 0.8
COc1ccc(C)cc1N(C(=O)Cn1nnc(-c2ccc(C)o2)n1)C(C(=O)NC1CCCC1)c1ccncc1 (stereo unspecified) | 1.1
COc1ccc(NC(=O)C(=O)N/N=C(\C)CC(=O)Nc2ccccn2)c(OC)c1 | -0.47

Quoted from the entries so far, two compounds:
SMILES | Kir21 inh
COc1ccc(C)cc1N(C(=O)Cn1nnc(-c2ccc(C)o2)n1)C(C(=O)NC1CCCC1)c1ccncc1 (stereo unspecified) | 1.1
COc1ccc(NC(=O)C(=O)N/N=C(\C)CC(=O)Nc2ccccn2)c(OC)c1 | -0.47

Going on with the list:
SMILES | Kir21 inh
CCCNC(=O)CCc1c(C)nc2nc(C)nn2c1C | -0.55
CCOc1ccc(OCC)c(NC(=O)CN(C)S(=O)(=O)c2ccc3nc(C)sc3c2)c1 | -1.2
CCCCc1nc(C(N)=O)c2[nH]c(=O)n(-c3ccccc3F)c2n1 | -0.39
CCCc1[nH]nc2c1C(c1cc(OC)cc(OC)c1)C(C#N)=C(N)O2 (stereo unspecified) | -1.1
CCn1cc(C(=O)Nc2ccc(C)cc2C)c(=O)c2ccc(C)nc21 | 1.4
CSCCC(NC(=O)COc1ccccc1)C(=O)OCCOc1ccc(Br)cc1 (stereo unspecified) | -0.86
CCOc1ccc(S(=O)(=O)N2CCCC(C(=O)NCc3ccccc3)C2)cc1 (stereo unspecified) | 0.76
CCCC1=C(C(=O)OCC)C(c2ccc(N(C)C)cc2)n2ncnc2N1 (stereo unspecified) | 0.5
O=C(N/N=C/C=C/c1ccccc1)C1CC1(c1ccccc1)c1ccccc1 (stereo unspecified) | 0.15
Cc1cc(Oc2ccc(N)cn2)cc(C)c1Cl | 3
COc1ccccc1/C=C/C(=O)NCC(=O)N/N=C/c1ccc(C(=O)O)cc1 | -1.7
Cc1cc(C(=O)CSc2nc(N)cc(=O)[nH]2)c(C)n1-c1cccc(F)c1 | -1.8
CCOC(=O)c1ccccc1NC(=O)Cn1cnc2c(nnn2-c2ccc(C)cc2)c1=O | -0.09
COc1cccc(CNC(=O)CCS(=O)(=O)c2cccc3nonc23)c1 | 0.51
O=C(NCc1ccccc1)C1CCC1 | -0.01
CC(=O)N1CCOc2cc(S(=O)(=O)NCc3ccc(F)cc3)c(C)cc21 | -0.16
N/C(=N\N=C\c1ccnc2ccccc12)SC1CC(=O)N(c2ccc(Br)cc2)C1=O (stereo unspecified) | 2.1
CC(C)c1cc(C(=O)N/N=C/c2cccnc2)n[nH]1 | -1.4
CC1CN(Cc2cc(=O)[nH]c(C(C)C)n2)CC(C)O1 (stereo unspecified) | 0.63
O=C(CN(C(=O)CSc1nnc(COc2ccccc2)o1)c1ccc(F)cc1)NC1CCCC1 | -0.69
O=C(CSc1nnc(-c2ccncc2)n1C1CCCCC1)Nc1ccccc1 | 1.7
COC(=O)c1c(NC(=S)Nc2cc(OC)c(Cl)cc2OC)sc2c1CCCCC2 | 0.85
COC(=O)C1CCN(S(=O)(=O)c2c(C)n(C)c(=O)n(C)c2=O)CC1 | -0.03
CCCOC(=O)Nc1ccc(S(=O)(=O)Nc2ncccn2)cc1 | -1.8
COc1ccc(-c2nc(SCC(=O)N3CCOCC3)n[nH]2)cc1 | 0.58
SMILES | Kir21 inh
COc1ccccc1C(=O)N/C(=C\c1ccc(Br)cc1)C(=O)NCCCO | 0.41
Brc1ccc2nc(N3CCN(c4ccccc4)CC3)sc2c1 | 0.49
CCC(=O)N1CCc2cc(Br)cc(S(=O)(=O)NCCN3CCCCC3C)c21 (stereo unspecified) | 0.54
CCCN1CCC(NCC(C)c2ccccc2)CC1 (stereo unspecified) | 0.59
COc1cccc2[nH]c3c(Cl)ncnc3c12 | 0.05
COc1ccc(/C=N/n2cnc3c([nH]c4ccc(C)cc43)c2=O)cc1CN1CCCC1 | -2.3
O=C(CCNC(=O)c1ccccc1Cl)Nc1cccc(C(F)(F)F)c1 | 1.6
COc1ccc(C2(CCN)CC(C)N(C)CC2C)cc1 (stereo unspecified) | 0.4
Fc1ccc2c(Cl)c(-c3nnc(-c4cccs4)o3)sc2c1 | 0.05
Cc1cc2c(cc1C)CSC(c1ccc3ccccc3c1O)SC2 | 0.97
O=C1CC(SC(=Nc2ccccc2)Nc2ccccc2)C(=O)N1c1ccc(Cl)cc1 (stereo unspecified) | 0.08
Cc1cc2c(cc1C)NC1(C(=O)Nc3ccccc31)C1=C(CC(C)(C)CC1=O)N2 (stereo unspecified) | 1.2
COc1cc(C(=O)NCc2ccc(-c3nc4ccccc4s3)cc2)cc(OC)c1OC | -2.2
O=C1CCC(C(=O)N2CCCCCCC2)CN1Cc1cccc(C(F)(F)F)c1 (stereo unspecified) | -0.77
COc1cc(C(CCN2CCCC2)c2c(OC)cc(OC)c3c(-c4ccccc4)cc(=O)oc23)cc(OC)c1OC (stereo unspecified) | 2.9
CC(C)NCC(O)c1cc(O)cc(O)c1 (stereo unspecified) | -0.13
CCOC(=O)[C@@H]1[C@H]2COc3cc(OC)ccc3[C@@H]2N2C(=O)N(c3cccc(F)c3)C(=O)[C@@]12C | -0.46
CC(C)CC1NC(=O)N(CC(=O)N2c3ccccc3NC(=O)C2(C)C)C1=O (stereo unspecified) | 2.4
O=C(COc1ccc(S(=O)(=O)Nc2ccccc2)cc1)NCc1cccnc1 | 1.9
Cc1ccc(S(=O)(=O)NCC(=O)NCC(=O)N2CCN(c3ncccn3)CC2)cc1C | -1.2
CC(Oc1ccccc1)C(=O)N1CCN=C1SCc1ccccc1F (stereo unspecified) | 0.64
O=C(C1=C[C@@H](c2ccccc2)C[C@@H](OCc2ccc(CO)cc2)O1)N1CCN(Cc2ccc3c(c2)OCO3)CC1 | 0.27
Cc1cc(Cl)ccc1NC(=S)NCc1ccc(S(N)(=O)=O)cc1 | 0.01
COC(=O)COc1ccsc1C(=O)OC | 0.77
COCc1cc(C)nc2sc(C(=O)Nc3ccc(C(=O)OC)cc3)c(N)c12 | 0.03

Structures above that contain a COOH group:
SMILES | Kir21 inh
O=C(O)CNC(=O)c1ccc(NC(=O)/C(=C/c2cccc([N+](=O)[O-])c2)NC(=O)c2ccco2)cc1 | 0.09
COc1ccccc1/C=C/C(=O)NCC(=O)N/N=C/c1ccc(C(=O)O)cc1 | -1.7

Arranged by value in Kir21 inh (lowest first): 3 from the list above.
SMILES	Kir21 inh
CC(C)c1cc(C(=O)N/N=C/c2cccnc2)n[nH]1	-1.4
CCCN1CCC(NCC(C)c2ccccc2)CC1 (stereo unspecified)	0.59
Cc1cc2c(cc1C)CSC(c1ccc3ccccc3c1O)SC2	0.97

(listing goes on)
SMILES | Kir21 inh
S=C(NCc1ccco1)N1CCN(c2ccccn2)CC1 | 0.07
Cc1ccc(C(=O)Nc2ccccc2C(=O)N2CC3(C)CC2CC(C)(C)C3)cc1 (stereo unspecified) | 0.07
O=C(CCCc1cccs1)Nc1nccs1 | 1.4
COc1ccc(/C=N/N2C(C)CCCC2C)cc1O (stereo unspecified) | 1.2
CCOC(=O)c1ccc2c(c1)sc(=NC(=O)c1ccco1)n2CCOC | -1.4
O=C1CCCC2=C1C(c1ccc(O)c(Br)c1)C1=C(CCCC1=O)N2c1ccccc1 | -0.02
CCN(CC)CCN(CC(=O)Nc1c(C)cc(C)cc1C)C(=O)c1ccccc1 | -0.89
COc1ccc(C(C)(C)C)cc1NC(=O)c1cccc(S(=O)(=O)N2CCN(C(C)=O)CC2)c1 | 1.9
CCCCCc1c(O)c2ccccc2[nH]c1=O | -0.1
CCC1CCC(NC2CCCCNC2=O)CC1 (stereo unspecified) | -0.22
CN1c2ccccc2Oc2nnc(Cl)cc21 | 1
Cc1nc2c(-c3ccc(F)cc3)c(C)nn2c(C)c1CCC(=O)Nc1ccccc1 | 0.83
Cc1ccc(S(=O)(=O)NCC(=O)OCC(=O)NC(=O)c2cccn2C)cc1 | -0.13
CCOC(=O)/C(C#N)=C\c1c(C)cc(C)c(COC(C)=O)c1C | -0.37
O=C(Nc1ccccc1O)c1c(O)c2c([nH]c1=O)CCCC2 | -0.1
COc1ccc(S(=O)(=O)N/N=C\c2ccccc2F)cc1 | -0.77
Cc1ccc(CNC(=O)CSc2ccsc2[N+](=O)[O-])cc1 | 1.6
O=C(c1ccc(Cn2ccc([N+](=O)[O-])n2)cc1)N1CCN(Cc2ccccc2)CC1 | -0.98
OC(COc1ccccc1)CN1CCCCCC1 (stereo unspecified) | 0.02
Cc1ccc(-c2csc(NC(=O)CCNC(=O)c3ccccc3Cl)n2)cc1 | -0.81
CN(C)S(=O)(=O)c1cc(C(=O)NCCCn2ccc3ccccc32)ccc1Cl | -0.07
CCN1CCN(c2nc(N)c([N+](=O)[O-])c(Nc3cccc(C)c3)n2)CC1 | 1.2
Cn1c(SCC(=O)c2ccccc2)nnc1C1COc2ccccc2O1 (stereo unspecified) | 1.5
Cc1nn(Cc2c(Cl)cccc2Cl)c(C)c1NC(=O)c1sc2ccccc2c1Cl | 0.16
Cc1cc(Cl)cc(Cl)c1OCC(=O)NCc1ccco1 | -1.3
SMILES | Kir21 inh
C/C(=N\N=C(/N)SC1CC(=O)N(c2cccc(Cl)c2)C1=O)c1cccs1 (stereo unspecified) | -0.08
Cc1ccc2nc(/C(C#N)=C\c3ccc(Oc4ccc(C(F)(F)F)cc4[N+](=O)[O-])cc3)[nH]c2c1 | -0.89
Cc1ccc(C)c(NC(CC(=O)c2ccccc2)C(=O)OCC(=O)c2cccs2)c1 (stereo unspecified) | -0.77
CCCCNC(=O)N1CCN(C(=O)c2ccco2)CC1 | 1.6
CCN(CC(=O)Nc1ccc(NC(C)=O)cc1)C(=O)/C=C/c1cccs1 | -0.35
CN(/N=C/c1ccco1)C1=NS(=O)(=O)c2ccccc21 | 0.38
COCCn1c(Cc2ccccc2)nnc1SCC(=O)Nc1ccccc1 | 0
CCC(=O)Oc1ccc(C(=O)Nc2ccc3c(c2)C(=O)N(C2CCCCC2)C3=O)cc1 | 0.6
Cc1cc(NC(=O)CCC(=O)N(CC(=O)NC2CCCC2)Cc2ccco2)no1 | 0.81
N#Cc1cccc(NC(=O)COC(=O)CCc2nc3ccccc3c(=O)[nH]2)c1 | 0.89
COc1ccc(C(C)=O)cc1CS(=O)(=O)CC(=O)O | 0.07
C#CCNC(=O)C1=C[C@@H](c2ccc(C#C)cc2)[C@H](CCCO)[C@@H](OCC)O1 | 1.5
COc1ccc(NS(=O)(=O)c2cccc(NC(=O)C34CCC(CC3)C4)c2)cc1 | -0.05
COc1ccc(S(=O)(=O)N2Cc3ccccc3CC2C(=O)O)cc1OC (stereo unspecified) | 0.14
Cc1ccc2c(c1)nnn2C1CCN(CC(=O)NCCc2ccccc2)CC1 | 0.04
Nc1nonc1-n1nnc(C(=O)N/N=C/c2cccc(Cl)c2)c1-c1cccs1 | -1.2
COCCCNCCOc1ccc(C)cc1[N+](=O)[O-] | 0.95
Cc1nc(N(CCO)C2CCCCC2)c2nnn(Cc3ccccc3)c2n1 | -0.02
CC(=O)c1sc(-c2ccc(Cl)cc2)cc1N | 0.24
CC(=O)N1N=C(c2ccccc2)CC1c1ccc(F)cc1 (stereo unspecified) | -0.19
CC(=O)N1CCc2cc(Br)cc(S(=O)(=O)NCc3ccccn3)c21 | 0.04
Cc1c(Cl)cccc1NC(=O)C1CCCCC1 | 0.72
Cc1cccc(NC(=O)CC2NCCNC2=O)c1 (stereo unspecified) | 0.34
CN(C(=O)Cn1nc(C(=O)O)c2ccccc2c1=O)c1ccccc1 | -0.89
CCNS(=O)(=O)c1ccc(NC(=O)Cc2ccc(F)cc2)cc1 | 1.1
Cc1cnc(C(=O)OCc2ccc(C#N)cc2)cn1 | -0.4
CCCSCCCNC(=O)c1cc2c(s1)CS(=O)(=O)C2 | 1.8
COc1cc(N)cc(NC(=O)c2ccncc2)c1 | 0.72
O=C(Nc1nccs1)c1cc([N+](=O)[O-])ccc1Cl | -0.65

Screening data: PubChem, Johns Hopkins Ion Channel Center

Only part of the results is shown; most or all hits stand in other tables.
